Compound activity as filed in PubChem BioAssay.
MT1-MMP act inh: MT1-MMP (human) activation inhibition. P50281. HT1080 RFP-PRO-GFP cells, GFP/RFP ratio fluorescence, overnight; percent of plate control window, DMSO zero. GFP/RFP ratio change, % at 20 µM. actives 0.061% (n = 360,000). AID 651647;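 active = GFP/RFP ratio change of at least 30% with cell ATP level not reduced by more than half and red fluorescence within 50% of control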; also: strong numbers were not always called active
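Material – HT1080 RFP-PRO-GFP cells · Control set – DMSO wells and RFP-L50D-GFP cells · Incubation – overnight cell settling, then overnight compound exposure, 37 °C, 5% CO2 · Compound dosing – single-point 20 µM compound, 1% DMSO · Read-out – GFP/RFP fluorescence ratio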
Env fusion inh: HIV envelope-mediated fusion inhibition; AID 651610; actives 1.1% (n = 360,000); inhibition, % at 12.3 µM; HeLa-JRFL Env/CEM21 cell fusion, luciferase;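 active = mean replicate inhibition score of at least 50 and every replicate individually at or above 50; inconclusive = only one of the two criteria met; inactive = mean below 50 and not all replicates reaching 50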;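 also: 0% = plate neutral controls and 100% = maraviroc near 300 nM; one replicate is shown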
MT1-MMP act inh RFP: second read-out of MT1-MMP act inh, no call of its own (marks repeat the call); RFP signal change, %; measured here: RFP expression control read;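 0 = vehicle wells; hits needed this value within 50% of zero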
Numbers without * were called inactive; u = inconclusive.

SMILES | MT1-MMP act inh | MT1-MMP act inh RFP | Env fusion inh
CC(C)C[C@H]1CN([C@@H](CC(C)C)CN2CCC[C@H]2CN2C(=O)C(=O)NC[C@@H]2Cc2ccc(O)cc2)C(=O)C(=O)N1CC1CCCCCC1 | 1 | -5 | -71
O=C1N(c2ccccc2)c2ccccc2[C@]12C[C@H](O)CO2 | 7 | 3 | -6
COC(=O)C[C@H]1C[C@H]2c3cc(NC(=O)C4CCC4)ccc3O[C@H]2[C@H](CO)O1 | 1 | 5 | -47
COC(=O)C[C@H]1C=C[C@H](NC(=O)Cc2ccccc2)[C@@H](CO)O1 | 5 | 8 | -10
COCCCn1cc(CN2CC(N3CCN(C4CCN(C)CC4)CC3)CS2(=O)=O)nn1 (configuration not stated) | 4 | 3 | -10
COc1ccc(C2=Cc3ccccc3C(CC(=O)C3CC3)N2c2ccc(C#CCCO)cc2)cc1 (configuration not stated) | -4 | 2 | 15
Cc1cc2c(cc1C)-n1nnnc1C(N(C)CCc1ccccc1)C(=O)N2 (configuration not stated) | -5 | -6 | -10
CC1C(=O)N(Cc2cn(CC3CCCCC3)nn2)CCS(=O)(=O)N1Cc1ccc(-c2ccc(Cl)c(Cl)c2)cc1 (configuration not stated) | 5 | -4 | -12
CC(C)CC(N)c1csc(Nc2ncccn2)n1 (configuration not stated) | -7 | 0 | 1
C[C@H](NC(=O)[C@@H]1CCCN1C(=O)[C@@H]1CCCN1C(=O)c1ccccc1)c1ccccc1 | 5 | 7 | 22
CCOC(=O)[C@]12CCC=C1N(Cc1cccc3ccccc13)C(=O)[C@H](CC(=O)NCCCOC)C2 | 1 | 0 | -16
O=C(c1cccc(Cl)c1)N1CCC(=O)N([C@H](COCc2ccccc2)Cc2ccccc2)CC1 | -2 | -2 | 5
C=CCNc1ncnc2c1ncn2[C@H]1CN(Cc2cccs2)C[C@@H](CO)O1 | 0 | 5 | 30
CN(Cc1cn(Cc2cccc(C(F)(F)F)c2)nn1)C1CN(Cc2cn(Cc3cccc(C(F)(F)F)c3)nn2)S(=O)(=O)C1 (configuration not stated) | 4 | -13 | u
COC(=O)[C@]12CCCCC=C1N(Cc1ccccc1)C(=O)[C@H](CC(=O)NCCCCc1ccccc1)C2 | 0 | -11 | -38

Complete entries as entered above:
Listed for `COCCCn1cc(CN2CC(N3CCN(C4CCN(C)CC4)CC3)CS2(=O)=O)nn1` (configuration not stated) : MT1-MMP act inh: 4; MT1-MMP act inh RFP: 3; Env fusion inh: -10
Listed for `C[C@H](NC(=O)[C@@H]1CCCN1C(=O)[C@@H]1CCCN1C(=O)c1ccccc1)c1ccccc1` : MT1-MMP act inh: 5; MT1-MMP act inh RFP: 7; Env fusion inh: 22

Ordered by the number under Env fusion inh (smallest number first): some entries from above
smiles | Env fusion inh
Cc1cc2c(cc1C)-n1nnnc1C(N(C)CCc1ccccc1)C(=O)N2 (configuration not stated) | -10
O=C1N(c2ccccc2)c2ccccc2[C@]12C[C@H](O)CO2 | -6
O=C(c1cccc(Cl)c1)N1CCC(=O)N([C@H](COCc2ccccc2)Cc2ccccc2)CC1 | 5

Later entries:
SMILES | MT1-MMP act inh | MT1-MMP act inh RFP | Env fusion inh
CCOC(=O)[C@]12CCCC=C1N(Cc1ccco1)C(=O)[C@H](CC(=O)N1CCCCC1)C2 | 3 | 1 | -62
CC(C)c1ccc([C@@H]2O[C@H](C)CC3=C2C(=O)OC(C)(C)O3)cc1 | -1 | 1 | 4
COC(=O)c1cc(C)ccc1/C=C1/Cc2c(C)cc(C)cc2C1=O | -5 | -1 | 24
O=C1Nc2ccccc2-n2nnnc2C1N1CCCN(Cc2ccc(F)cc2)CC1 (configuration not stated) | -3 | 5 | -4
O=C1NC[C@H](CCCCN2C[C@H](Cc3ccc(O)cc3)N(CCC3CCCCC3)C(=O)C2=O)N(CCc2ccccc2)C1=O | 0 | 6 | 15
CCCCCCCCN1C(=O)[C@H](CC(=O)NCCc2ccccc2OC)C[C@@]2(C(=O)OC)CC(C)(C)CC=C12 | -9 | -17 | 39
CCOC(=O)C1(C(=O)OCC)NC(=O)CC1C(C)C (configuration not stated) | 1 | -1 | -3
CN(C)CCNc1ccc(CO)c2oc3ccc(O)cc3c(=O)c12 | 1 | -1 | 44
Cc1cc(N2CCN(C(C(=O)NC3CCCC3)c3ccc(F)cc3)CC2)c2ccccc2n1 (configuration not stated) | 0 | 0 | -4
Cc1ccc(S(=O)(=O)N2CCC[C@H]2C(=O)NC2=NCCS2)cc1 | 4 | 3 | -2
O=C1CSC(=S)N1Cc1ccccc1 | 9 | 20 | 19
Cc1nc2ccccc2n1C(C)c1nc2ccccc2n1CC(=O)c1ccsc1 (configuration not stated) | 8 | 7 | -12
O=C1NC[C@H](CCCCN2C[C@H](Cc3ccc(O)cc3)N(CC3CCCCC3)C(=O)C2=O)N(CCC2CCCCC2)C1=O | 2 | 5 | -3
c1coc(-c2nc(N=C3N=c4ccccc4=N3)[nH]c2-c2ccco2)c1 | 2 | 5 | -19
CCOc1cc(OCC)cc(C(=O)N2CCC[C@@H]2C(=O)N2CCC[C@@H]2C(=O)NCc2ccccc2Cl)c1 | 4 | 0 | 3

Another view of some results above:
canonical_smiles	MT1-MMP act inh	MT1-MMP act inh RFP	Env fusion inh
CCOC(=O)[C@]12CCCC=C1N(Cc1ccco1)C(=O)[C@H](CC(=O)N1CCCCC1)C2	3	1	-62
CC(C)c1ccc([C@@H]2O[C@H](C)CC3=C2C(=O)OC(C)(C)O3)cc1	-1	1	4

Copied from the list.
MT1-MMP act inh RFP with `O=C1CSC(=S)N1Cc1ccccc1` is entered as 20
Env fusion inh with `CCCCCCCCN1C(=O)[C@H](CC(=O)NCCc2ccccc2OC)C[C@@]2(C(=O)OC)CC(C)(C)CC=C12` is entered as 39
Env fusion inh with `CCOC(=O)[C@]12CCCC=C1N(Cc1ccco1)C(=O)[C@H](CC(=O)N1CCCCC1)C2` is entered as -62

The results go on.
SMILES | MT1-MMP act inh | MT1-MMP act inh RFP | Env fusion inh
Cc1ccc(Cc2c(-c3cccc(Br)c3)nc3c(Cl)cc(C(F)(F)F)cn23)cc1 | 2 | 1 | 5
O=C(C[n+]1ccc(C(=O)NCc2ccccc2)cc1)c1ccc(F)cc1 | 8 | 7 | 12
COc1ccccc1N1CCN(c2ncnc3n[nH]c(Br)c23)CC1 | -3 | -4 | -82
CCC1OC(C(C)C)Cc2[nH][nH]c(=O)c21 (configuration not stated) | 5 | 5 | 11
CCOC(=O)[C@]12CCC=C1N(Cc1ccccc1)C(=O)[C@H](CC(=O)NCC13CC4CC(CC(C4)C1)C3)C2 | -1 | -15 | 64*
COc1cccc(Cn2c(Cn3c(-c4cnccn4)nc4ccccc43)nc3ccccc32)c1 | -1 | 3 | -3
CC(C)n1nnnc1C1c2ccccc2C(=O)N1CCc1ccccc1F (configuration not stated) | 1 | 5 | -56
CC(=O)N1CCN(CC(=O)Nc2cccc(S(=O)(=O)N3CCCCC3)c2)CC1 | -1 | -2 | -2
Cc1occc1-c1nnc(SCC(=O)NC2(C#N)CCCC2)n1C | 1 | 4 | -13
O=C(CCNS(=O)(=O)c1ccccc1)NCC1CCCCC1 | 6 | 4 | -14
COc1cc([N+](=O)[O-])c2nc(C=NNC(N)=S)ccc2c1 | 5 | 1 | -7
O=C(NCc1ccccc1)C(C1CC1)n1c(=O)c(-c2ccco2)nc2ccccc21 (configuration not stated) | -11 | 10 | -6
COC(=O)[C@@]1(Cc2ccc(F)cc2)[C@H]2c3cc(C(=O)N(C)C)n(Cc4cc(F)cc5c4OCOC5)c3C[C@H]2CN1C(=O)c1ccccc1 | -7 | -7 | -46
O=C1CCCCC(=O)[C@H](O)C[C@H](COCc2ccccc2)O1 | 3 | 5 | 4
Cc1ccccc1C1=C/C(=C(\SS/C(C(=O)c2ccc(OCC(=O)O)c(Cl)c2Cl)=C2\C=C(c3ccccc3C)SS2)C(=O)c2ccc(OCC(=O)O)c(Cl)c2Cl)SS1 | 34* | -2.8* | -2
COc1cccc(C=NN(C)c2c([N+](=O)[O-])cc(C(F)(F)F)cc2[N+](=O)[O-])c1O | 6 | -3 | 6
Cc1ccsc1-c1cc2nc(NCCOc3ccccc3Cl)n(C)c(=O)c2s1 | -2 | 0 | -14
CC(=O)Nc1cc2c3ccccc3ccc2c2ccccc12 | -4 | -5 | -18
O=CN(CCNc1ccccc1)c1ccccc1 | -2 | -2 | -17
Oc1ccc(C[C@H]2CN([C@@H](Cc3ccccc3)CN3CCCC3CN3C(=S)NC[C@@H]3Cc3ccccc3)C(=S)N2CC2CCCCC2)cc1 (some centres not stated) | -2 | -5 | -6
CSc1ccc(-c2ccc3c(c2)c(Sc2ccccc2)c(-c2ccccc2)n3C)cc1 | 2 | 7 | -2
Nc1[nH]c(C(=O)c2ccccc2)c(-c2ccncc2)c1C(=O)NCCc1c[nH]c2ccccc12 | 0 | -5 | -18
CC1(C(=O)Nc2ccc3c(c2)OCCO3)CN(S(C)(=O)=O)CC(=O)N1C1CCCCCC1 (configuration not stated) | 1 | 2 | -33
CCCCN1C(=O)C(CC(=O)NCc2cccs2)CC(C(=O)N2CCOCC2)=C1C (configuration not stated) | -1 | 3 | -28
CCC(c1nc2ccccc2[nH]1)n1c(=O)c(-c2cccnc2)nc2ccccc21 (configuration not stated) | 1 | 14 | -14
Cc1ccc2ccccc2c1CSc1nc(N)nc2c1ncn2CC(C)C | 7 | -11 | -8
COc1cc(Cl)ccc1OC1(C)CCN(Cc2c(F)cccc2F)C1 (configuration not stated) | 1 | 5 | -9
COc1ccccc1CCn1cnc(-c2ccc(OC)c(OC)c2)c1C(C)C | -3 | -11 | -1
CC(C)CCN1C(=O)c2ccccc2C1c1nnnn1-c1ccc2c(c1)OCCO2 (configuration not stated) | 4 | 1 | -23
CCOC(=O)[C@]12CCC=C1N(Cc1cccc3ccccc13)C(=O)[C@H](CC(=O)N1CCCC1)C2 | -2 | -5 | -14
COC(=O)CCCn1cc(CN2CC(N3CCN(CCN(C)C)CC3)CS2(=O)=O)nn1 (configuration not stated) | 4 | 6 | -64
CCOc1ccc(CCN2C(=S)N([C@@H](Cc3ccccc3)CN3CCCC3CN3C(=S)NC[C@@H]3Cc3ccccc3)C[C@@H]2Cc2ccc(O)cc2)cc1 (some centres not stated) | 5 | -3 | 4
CCCN(C)C1CN(Cc2cn(Cc3ccc(C)cc3)nn2)S(=O)(=O)C1 (configuration not stated) | 2 | 3 | 26
CCOC(=O)[C@]12CCCC=C1N(Cc1ccc3c(c1)OCO3)C(=O)[C@H](CC(=O)NCc1cccc(C(F)(F)F)c1)C2 | 8 | -7 | -45
CCc1ccccc1Oc1nc(NC(C)C)nc2ccsc12 | -6 | -13 | -24
CCCCC[C@H]1CCCCC[C@@H](O)C[C@H](O)[C@H](O)/C=C/C(=O)O1 | 3 | -19 | 28
Cc1ccc(S(=O)(=O)C[C@@H]2OC3CCCCC3N2S(=O)(=O)c2ccc(C)cc2)cc1 (some centres not stated) | 0 | 1 | 3
COc1ccc(C2=Nc3ccccc3N(C(=O)c3ccncc3)C2C(=O)NC(C)C)cc1 (configuration not stated) | -4 | 4 | -5
CC(C)NC(=O)OC1CC2CC1[C@H]1CCCCN1C2=O (some centres not stated) | 4 | 6 | -14
CCCCC(=O)OCC(=O)C1(O)Cc2c(O)c3c(c(O)c2C(OC2CC(NC(=O)C(F)(F)F)C(O)C(C)O2)C1)C(=O)c1c(OC)cccc1C3=O (configuration not stated) | -19 | 54 | 15
CCOC(=O)C1OC2(CCCC2)OC1C(=O)OCC (configuration not stated) | 2 | 4 | -12

These rows are one share of the data; rates above refer to the full screens.
